NPYLR7 agonist = mosquito NPYLR7 agonism; 270,000 tested, 0.15% active; HEK293T NPYLR7/Galpha15, GCaMP6s calcium fluorescence; activation, % at 10 µM; in the data active = activation above about 40%;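 also: 0% = vehicle and 100% = reference agonist at the receptor; some compounds past the cut are filed as inactive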
NPYLR7 agonist max-min = also measured in NPYLR7 agonist; calls as there; activation, %; measured here: Max-Min RFU normalised activation; some inactives read as strong as hits;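 span of the calcium signal over five minutes; 0% = vehicle and 100% = native peptide agonist; compound fluorescence can raise it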
Active calls of the source: *; & = joins results of further samples. The list is partial. The share of hits here may be higher or lower than overall.

| structure | NPYLR7 agonist | NPYLR7 agonist max-min |
| --- | --- | --- |
| O=C(NCC1CCCN(Cc2ccoc2)C1)c1ccc(-c2ccccc2)cc1 (configuration not stated) | 0 | -3 |
| COC(=O)C1=C(C)N(C2CCCCC2)C(=O)C1 | 8 | 6 |
| COc1cc(NC(=O)CNCc2ccc(C(F)(F)F)nc2)cc(OC)c1 | 14 | 6 |
| Cc1cnccc1NCCNC(=O)C1CCOC1 (configuration not stated) | 2 | 0 |
| CSc1cccc(CN(C(=O)c2cccn2C)C(C)C)c1 | -5 | -8 |
| C=C(Cl)CN1CCCC(C(C)NC(=O)NC(C)(C)C)C1 (configuration not stated) | 5 | 1 |
| CCOc1ccc(-c2cc(C(=O)N/N=C\c3cccs3)[nH]n2)cc1OC | 3 | -1 |
| Cc1ccc2oc(-c3cccc(NC(=O)c4ccc(Cl)cc4)c3C)nc2c1 | 2 | -3 |
| N#CCn1cnc2c(-c3ccccc3)csc2c1=O | 1 | -2 |
| Cc1ccsc1-c1nc(COc2ccc(-n3cncn3)cc2)c(C)o1 | 9 | 9 |
| CCCCN1C(=O)CCc2cc(NC(=O)NCCc3ccc(OC)cc3)ccc21 | -10 | -13 |
| O=C(N=C1N=C2C=CC(I)=CN2Cc2ccccc21)C(F)(F)F | 8 | 12 |
| COc1ccc(-c2nc3cc(C)ccn3c2NC(=O)c2cccc(C(F)(F)F)c2)cc1OC | -3 | 2 |
| O=C(CSc1ccccc1)Nc1cccc(-c2cccc(-c3ccc(F)cc3)n2)c1 | 3 | 0 |
| Clc1cc2c(c3ncccc13)OCN(Cc1cccnc1)C2 | 0 | 0 |
| Cc1[nH]c2c(F)cccc2c1CC(=O)N1CCC2(CC1)CNC(=O)O2 | 4 | 2 |
| COC[C@@H]1CCCN1C(=O)c1ccc(Nc2cc(Nc3ccc4ncsc4c3)nc(N)n2)cc1 | -2 | -4 |
| COCCCNc1cc(C)nn2cnnc12 | -2 | 17 |
| Cc1ccc(CCC2CCN(C(=O)C3CCN(S(=O)(=O)c4ccc(F)c(F)c4)CC3)CC2)cc1 | -1 | 0 |
| Cc1ccc(N2C(=O)CC(N3CCN(C4CC(=O)N(c5ccc(C)cc5C)C4=O)CC3)C2=O)c(C)c1 (configuration not stated) | -6 | -11 |
| CN1C[C@H]2CN(C)c3ccccc3[C@@H]2N(C(=O)COc2ccccc2)CCC1=O | -3 | -1 |
| COc1ccc(-c2cnc3ncnn3c2N2CCN(C(=O)Nc3ccc(OC)cc3OC)CC2)cc1 | 18 | 6 |
| Cc1cc(Oc2cc(C(F)(F)F)nc(SCc3ccccc3C)n2)ccc1Cl | 0 | 14 |
| COc1cccc(COC(CN2CCN(C(=O)c3ccccc3Cl)CC2)c2ccc(Cl)cc2)c1 (configuration not stated) | -6 | -3 |
| COc1cccc(C2CCCCN2Cc2nc(-c3cccs3)oc2C)c1 (configuration not stated) | -1 | -2 |
| CCOC(=O)C1CCCN(C(=O)CCCSc2ccc(NC(=O)C3CC3)nn2)C1 (configuration not stated) | -1 | -2 |
| Cc1ncccc1Oc1ncnc(N2Cc3cnn(CCO)c3C2)c1C | -2 | -4 |
| COCC(=O)NC(c1ccccc1Cl)c1ccccc1OC (configuration not stated) | 4 | 0 |
| Cc1nc2sc3c(c2c(=O)n1N=CN(C)C)CCCC3 | 5 | 4 |
| COc1cccc(C2c3[nH]c4ccccc4c3CCN2C(=O)C2=C(C)OCCO2)c1OC (configuration not stated) | 9&-2 | 10&-5 |
| CNCc1sccc1C | 16 | 26 |
| Cc1ccc(CN(Cc2ccc(F)cc2)C(=O)CNC(C)(C)C)o1 | 0 | -7 |
| COc1ccc(-c2ccc(N)nc2)c(C)c1 | 21 | 8 |
| CC(C)c1ncc2c(n1)CN(CCS(=O)c1ccccc1)CC2 (configuration not stated) | 7 | 4 |
| C[C@H](CO)N(CC(=O)N(C)Cc1cccc(C(F)(F)F)c1)Cc1ccccc1 | 6 | 2 |
| N#CC1C(=N)Oc2cc(N)ccc2C1c1ccc(F)cc1 (configuration not stated) | 0 | 0 |
| CCc1nc2ccc(C(=O)Nc3cccc(OCC(=O)N(C)C)c3)cn2c1N(C=O)Cc1ccc(OC)cc1 | 24 | 21 |
| CCc1ncc(C(=O)N(CC)Cc2nc(-c3cccc(C)c3)no2)cn1 | 22 | 9 |
| O=c1oc2ccccc2c(O)c1C=Nc1ccc(F)cc1 | -1 | -1 |
| Cc1ccc(C)c(Oc2ccc(CNC(=O)N3CCC(C(N)=O)C3)cn2)c1 (configuration not stated) | 1 | 10 |
| COc1cccc(OC)c1C(=O)N1C(C(=O)NC(C)c2ccccc2)COC12CCCC(C)C2 (configuration not stated) | -17 | 0 |
| Nc1cc(N2CCCC(C(=O)c3ccc(Oc4ccccc4)cc3)C2)ncn1 (configuration not stated) | -2 | -2 |
| COc1ccc2c(c1)CN(S(=O)(=O)c1c(C)noc1C)CC2 | 13 | 9 |
| COc1ccccc1-c1c(C(F)(F)F)oc2c(CN(C)C)c(O)ccc2c1=O | -8 | -15 |
| CC(C)(C)OCC1CN(CCc2ccccc2)C(=O)c2cccnc2O1 (configuration not stated) | -2 | -1 |
| COCc1cccc(-c2ccc3c(c2)N(CCN2CCOCC2)C(=O)COC3)c1 | 6 | 4 |
| c1ccc2c(c1)CC1(CCCCC1)n1nnnc1-2 | 0 | -4 |
| Cc1cccc(-n2ncc3c2ncn2c(-c4ccc(O)cc4)nnc32)c1 | 6 | 4 |
| Cn1c(=O)c2c(-c3ccc(C(C)(C)C)cc3)c(NCc3ccccc3)oc2n(C)c1=O | -2 | -3 |
| CC1C(=O)N(c2ccc(F)cc2F)CCN1C(=O)c1cccs1 (configuration not stated) | 0 | 10 |
| Cc1ccc(-c2cc3c(=O)n(Cc4nc(-c5ccccc5)no4)ccn3n2)cc1 | 0 | 0 |
| O=C(CCl)Nc1ccc(Oc2ccc(Br)cc2)cc1 | 7 | 2 |
| O=C(Cn1nc(C2CCNCC2)n(Cc2ccccc2)c1=O)N1CCCCC1 | 5 | -8 |
| O=C(CCl)Nc1ccc(-c2nnc3n2CCCCC3)cc1 | 6 | 2 |
| Cc1ccc2nc(SCC(=O)Nc3cccc(Cl)c3)nc(=O)n2c1 | 3 | 0 |
| CCc1ccc(-n2c(C)cn3c4c(=O)n(CCN5CCCCC5)c(=O)n(C)c4nc23)cc1 | 11 | 6 |
| CN(CC(=O)NCCc1ccc(Cl)cc1Cl)c1nc(Cc2ccc(Cl)cc2)ns1 | -5 | 1 |
| CC(=O)Nc1ccc(N(CC(O)CON=C2c3ccccc3-c3ccccc32)S(C)(=O)=O)cc1 (configuration not stated) | 8 | 7 |
| COc1cc(Br)c(S(=O)(=O)NCC2COC(C)(C)O2)cc1OC (configuration not stated) | 11 | 8 |
| Cc1ccnc(N2CCN(c3cc(C)c(C#N)c4nc5ccccc5n34)CC2)c1 | 2 | -4 |

Ordered by molar mass (smallest number first): part of the list above
| structure | NPYLR7 agonist | NPYLR7 agonist max-min |
| --- | --- | --- |
| CNCc1sccc1C | 16 | 26 |
| COc1ccc(-c2ccc(N)nc2)c(C)c1 | 21 | 8 |
| O=C(N=C1N=C2C=CC(I)=CN2Cc2ccccc21)C(F)(F)F | 8 | 12 |
| COc1cccc(C2c3[nH]c4ccccc4c3CCN2C(=O)C2=C(C)OCCO2)c1OC (configuration not stated) | 9&-2 | 10&-5 |

Further results follow.
| structure | NPYLR7 agonist | NPYLR7 agonist max-min |
| --- | --- | --- |
| CNC(=O)CCN1C(=O)CSC1c1ccc(C)cc1 (configuration not stated) | 28 | 22 |
| O=C(Nc1ccc2c(c1)CN(C(=O)Cn1nc3ccccc3n1)CC2)C1CCCO1 (configuration not stated) | 8 | 6 |
| O=C1CSC(c2cccs2)N1c1ccc(F)cc1F (configuration not stated) | -9 | -15 |
| COc1ccc(C=C2SC(=S)NC2=O)c(OC)c1OC | -6 | 8 |
| CC(C#N)Sc1nnc(-c2ccco2)o1 (configuration not stated) | 1 | 8 |
| CC(C)(C)C(=O)CSc1nnc(-c2cc(-c3ccccc3)nc3ccccc23)o1 | -15 | -21 |
| O=c1onc2n1-c1cc(Br)ccc1OC2 | 5 | -33 |
| O=C(Nc1c(F)cccc1Oc1ccccc1)C1CCOC1 (configuration not stated) | 7 | 2 |
| Cc1nn2cc(-c3ccc(Br)cc3)cc2c2c(C)n(C)c(C)c12 | 0 | -6 |
| CC(C)Cc1ncc2c(n1)CN(C(=O)c1ccccn1)C2 | 7 | 5 |
| CCN(CC)C(C)C(=O)Nc1c2c(cc3c1CCC3)CCC2 (configuration not stated) | -2 | -2 |
| Cc1nc(C(=O)NCCCOc2cccc([N+](=O)[O-])c2)cs1 | -9 | -12 |
| N#Cc1cccc(NCc2c(F)cccc2Cl)c1 | -1 | -2 |
| CNC(=O)C1CCN(Cc2ccc(C(=O)Nc3cc(F)ccc3C)cc2)C1 (configuration not stated) | 4 | -7 |
| CCc1ccc(S(=O)(=O)Nc2ccc(-c3csc4nc(C)cc(=O)n34)cc2)cc1 | -5 | -5 |

Next structures follow.
SMILES	NPYLR7 agonist	NPYLR7 agonist max-min
O=c1cc(CN2CCN(S(=O)(=O)c3ccc4c(c3)OCCO4)CC2)occ1OCc1ccccc1Cl	-2	-6
FC(F)(F)c1cccnc1N1CCN(Cc2nc3ncccn3c2Br)CC1	1	1
O=C(CCc1ccccc1)Nc1ccnn1C1CCN(C(=O)c2n[nH]c3c2CCCC3)CC1	4&28	1&33
Cn1c(=O)n(CCCc2ccccc2)c(=O)c2c1nc1n2CCCN1Cc1ccco1	3	4
O=C(NCc1ccccc1)c1cnc(N2CCN(Cc3ccccc3)C2=O)o1	-1	-4
O=S(=O)(Nc1ccccc1Cl)c1ccc2oc(=S)[nH]c2c1	-7&2	-13&2
Cc1nnc(SCCCNC(=O)c2ccncc2Cl)s1	13	5
Nc1cccc(C(=O)Nc2cc(=O)n(-c3c(Cl)cc(Cl)cc3Cl)[nH]2)c1	-4	-10
O=C(CCC1CCCN(C(=O)CCCc2ccccc2)C1)N1CCCC1 (configuration not stated)	-3	-7
O=C(Nc1ccc(F)cc1)N1CCC(n2cc(CN3CCOCC3)nn2)CC1	3	0
Fc1ccc(C2CC(c3cccc(Br)c3)Nc3nnnn32)cc1 (configuration not stated)	10	9
COc1cccc(CNC(=O)C2CCN(C(=O)[C@@H]3CCCN3C(=O)Nc3ccccc3Br)CC2)c1	16	20
COc1cccc(C2(C)NC(=O)N(NC(=O)CN3CCCc4ccccc43)C2=O)c1 (configuration not stated)	9	3
COc1ccc(S(=O)(=O)NCCc2csc3nc(-c4ccc(C)cc4)nn23)cc1OC	-13	-11
CN(C)Cc1ccccc1CNS(=O)(=O)c1ccc(F)cc1	-2	-4
COc1ccc(-c2ccc(C(=O)N3CCCN(c4ncccn4)CC3)cn2)cc1	2	-2
O=C(NC1CCCCCC1)N1CCC(n2cc(CCO)nn2)CC1	0	-4
COC(=O)c1ccc(S(=O)(=O)N2CC(c3ccccn3)C2)n1C	3	0
O=C(c1cc(C2CC2)on1)N1CCc2c([nH]c3ccccc23)C1c1cc(F)ccc1F (configuration not stated)	-1	-3
Cc1cccc(C(=O)N=Nc2c(O)[nH]c3cc(Br)c(C)cc23)c1	-3	-7
Cc1nc2nc[nH]n2c(=O)c1Cc1ccccc1	0	1
Cc1nc(C(=O)N2CCc3c(c(C(=O)NCc4ccccc4)nn3C)C2)cs1	6	-4
Cc1ccc(Cl)cc1Nc1ncccc1C(=O)N1CCC(n2c(=O)[nH]c3ccccc32)CC1	0	-2
Cc1ccc(S(=O)(=O)N(Cc2nccn2Cc2cccc(C(F)(F)F)c2)CC2CC2)cc1	0	7
CCCCSc1nnc2c(n1)OC=Nc1ccc(Br)cc1-2	3	-3
O=C(NCc1cnn(Cc2ccccc2)c1)C1CCN(c2ccccc2)C1=O (configuration not stated)	2	-1
O=C(Nc1ccc(Br)cc1)N1CCSC1c1cccc(OCc2ccccc2)c1 (configuration not stated)	-2	-1
O=S(=O)(Nc1ccc2c(c1)OCCO2)c1ccc2c(c1)CCCC2	5	11
CC(=O)CC1(O)C(=O)N(CN2CCCCC2)c2ccccc21 (configuration not stated)	4	3
Cc1ccc(NC(=O)N2CCC(=O)N(CC3CC3)C(C(C)C)C2)cc1 (configuration not stated)	3	-2
CN1CCN(c2ccc(Nc3nccc4[nH]c(-c5ccsc5)cc34)cc2)CC1	3	-6
O=C(/C=C/c1ccccc1)N1CCN(c2nccc(-c3cccc(C(F)(F)F)c3)n2)CC1	6	4
CC(=O)Nc1ccc(SCc2ccc(C(=O)N3C4CCC3CC(Oc3ccc(F)cc3F)C4)cc2)cc1 (configuration not stated)	4	-5
O=S(=O)(NCCNC/C=C/c1ccc(Br)cc1)c1cccc2cnccc12	-1&-3	-12&-14
COc1ccc(-n2c(SCc3cccc(C#N)c3)nnc2C2CCCCC2)cc1	27	36
CCC1(C)CC(CC#N)(c2ccc(C)cc2)CCO1 (configuration not stated)	0	-1
CCCN(CCC)C(=O)c1c(C(F)(F)F)nn(C2CCCN(C)C2)c1C (configuration not stated)	9	3
CC(=O)C=C(C)NCCNC(C)=CC(C)=O	-3	-4
CCCCNC(=O)C1(C)CCN1Cc1cccc2c(OC)cc(C(=O)OCC)cc12 (configuration not stated)	0	-3
CCN(CCn1cccn1)C(=O)CC1C(=O)NCCN1C1Cc2ccccc2C1 (configuration not stated)	3	4
COc1ccc(N=C2SC(=Cc3ccc(Cl)cc3)C(=O)N2N2CCOCC2)cc1	-5	-12
CCN(Cc1nc2cc(Cl)ccc2c(=O)[nH]1)C(=O)c1cc(C)ccc1C	-2	-3
N#CC1(C(=O)NCc2ccccc2Cl)CCCC1	-4	-4
O=C(NCc1cc(-c2ccco2)on1)c1cccc(CC2CCNCC2)c1	4	-2
Cc1ccc(-n2cn[nH]c2=O)cc1	-7	-7
Cc1ccc2nc(N(Cc3cccnc3)C(=O)c3ccc(C#N)cc3)sc2c1	-11	-10

Two entries from above, with each value named.
CCC1(C)CC(CC#N)(c2ccc(C)cc2)CCO1 (configuration not stated)
  NPYLR7 agonist: 0	NPYLR7 agonist max-min: -1

CCCN(CCC)C(=O)c1c(C(F)(F)F)nn(C2CCCN(C)C2)c1C (configuration not stated)
  NPYLR7 agonist: 9	NPYLR7 agonist max-min: 3

Screening data (PubChem BioAssay)
